Assay outcomes from PubChem.
VDR inhibitor – blocks the human vitamin D receptor; Potency, µM, inactives show max response, negative = inhibition, usual class: inhibitors; VDR-SRC2-3 peptide fluorescence polarization, 2 h; 400,000 compounds, 0.93% hits; P11473; active = well fitted inhibition curve with a large enough effect; inconclusive = small, poorly fitted or top-dose-only effect, or another doubt; inactive = no such curve, though single readings can be large or run the other way; note: series mostly up to about 120 µM
Target sequence (P11473 whole entry, looked up): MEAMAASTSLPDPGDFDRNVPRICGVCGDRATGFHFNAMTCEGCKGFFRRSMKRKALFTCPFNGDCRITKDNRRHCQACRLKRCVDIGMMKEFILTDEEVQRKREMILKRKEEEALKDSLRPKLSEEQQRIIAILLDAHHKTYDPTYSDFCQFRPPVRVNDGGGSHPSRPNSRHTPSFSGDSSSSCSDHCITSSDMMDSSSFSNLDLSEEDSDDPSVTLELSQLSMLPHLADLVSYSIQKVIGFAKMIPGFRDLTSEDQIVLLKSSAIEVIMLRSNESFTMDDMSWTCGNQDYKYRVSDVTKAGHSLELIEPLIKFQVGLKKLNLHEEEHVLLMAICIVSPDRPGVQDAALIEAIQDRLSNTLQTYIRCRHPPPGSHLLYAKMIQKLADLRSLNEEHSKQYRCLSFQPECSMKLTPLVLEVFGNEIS
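The screen uses fluorescence polarization to detect compounds that interfere with recruitment of the SRC2-3 coactivator peptide to VDR; plates are read after 2 h at room temperature.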
An asterisk follows results filed as active; ? = inconclusive; & = joins results of further samples. % is set by controls: 0 for no effect and ±100 for the full control effect; potency is the fitted concentration of half-maximal effect.

VDR inhibitor	mol
-18%	CCN(CC(=O)NCc1cccs1)C(=O)C1CC(=O)N(c2ccc(OC)cc2OC)C1 (stereo not drawn)
-11%	Cc1cc(C)c(S(=O)(=O)N2CCCC(C(=O)NCc3ccccn3)C2)c(C)c1 (stereo not drawn)
-10%	O=c1cc(S(=O)(=O)Cc2ccccc2)[nH]c(=O)[nH]1
3%	Cc1ccc(CNC(=O)c2c(-c3ccccc3F)noc2C)o1
15%	COc1ccccc1CCNC(=O)c1ccc2c(c1)c(C)c(C)n2Cc1ccc(Cl)cc1
12%	CCOC(=O)CNC(=O)CNC(=O)c1ccc(OC)cc1
-3%	O=c1n(Cc2ccccc2)nc2n1-c1cc(Cl)ccc1OC2
-17%	COCCNC(=O)c1csc2c1CCCC2
13%	COc1cc(Cl)c(C)cc1Nc1nnc(-n2nc(C)cc2C)c2ccccc12
3%	OCCNCCCCOc1ccc(OCc2ccccc2)cc1
-1%	CC(=O)Nc1ccc(NC(=O)C(C)OC(=O)C2(c3ccccc3F)CCCC2)cc1 (stereo not drawn)
-6%	Cc1ccc(S(=O)(=O)NC(=O)c2ccccc2F)cc1
14%	O=C1CCC/C=C\C[C@@H](CC(=O)N(CCO)Cc2ccccc2)C(=O)N[C@H](c2ccccc2)CO1
1%	Cc1noc(/C=C/N(C)C)c1S(=O)(=O)N1CCC(C(=O)Nc2ccc(Cl)cc2)CC1
1%	C/C(=C\C(=O)O)C12CC3CC(CC(C3)C1)C2
-11%	CCCOC(=O)CSc1ncnc2sc3c(c12)CCC(C)C3 (stereo not drawn)
-4%	NC(=O)NC(=O)COC(=O)CCCCCNS(=O)(=O)c1ccc2c(c1)OCCO2
-4%	CCOC(=O)N1CCN(C(=O)c2ccc3nc4ccc(Cl)cc4c(=O)n3c2)CC1
8%	COc1ccc(CCNC(=O)c2cc(-c3cc(Cl)cc(Cl)c3)oc2C)cc1
?	CCOC(=O)c1c(-c2ccc(C)o2)csc1NC(=O)CN1CCOCC1
-4%	COc1ccc(NC(=O)c2cccc3c2C(=O)c2ccc(-c4cnc(OC)nc4)cc2S3(=O)=O)cc1
-8%	O=C(Nc1ccc(O)c2c(=O)cc(-c3cccc(Cl)c3)oc12)c1cccc(Cl)c1
-22%	O=C(OCc1ccccc1C(F)(F)F)c1cc([N+](=O)[O-])ccc1N1CCOCC1
-2%	O=C(COc1ccccc1)NCc1ccc2c(c1)CCN2C(=O)c1ccc(Cl)cc1
-6%	O=C(CN(c1cccc(Cl)c1)S(=O)(=O)c1ccccc1)NN=C1CCCC1
19%	CC(C)NC(=O)C(=O)N/N=C/c1ccco1
-3%	Cc1cccc(CC(=O)N2CC(=O)Nc3ccc(Br)cc3C2c2ccc(F)cc2)c1 (stereo not drawn)
5%	COc1ccccc1C(=O)NC1(C(F)(F)F)C(=O)NC(C)=C1C#N (stereo not drawn)
1%	Cc1ccc(C(=O)NNC(=O)c2ccc3ncccc3c2)cc1
-3%	COc1ccc(C(=O)NC(=S)N2CCN(c3ccccc3OC)CC2)cc1
6%	Cc1[nH]c2ccc(C(=O)Nc3ccc(F)cc3)cc2c1C
-2%	O=C(CSc1nc2[nH]ncc2c(=O)[nH]1)NCc1ccc(F)cc1
-2%	CCOCCCN(C(=O)Cn1nnc(-c2ccc(OC)c(OC)c2)n1)C(C(=O)NCC1CCCO1)c1ccc(F)cc1 (stereo not drawn)
-1%	N#CCCn1c(=O)cnc2cnc(Nc3ccccc3)nc21
-2%	CC(=O)NCCNc1nc2c(-c3cccc(C)c3)nnn2c2ccccc12
-8%	O=C(Cc1ccc(NC(=O)C2CCCN(C(=O)C3CCCC3)C2)cc1)Nc1cccc(C(=O)N2CCCC2)c1 (stereo not drawn)
1%	Cn1cc(C(=O)N2CCCCC2)c(=O)c2cc(S(=O)(=O)N3CCCC3)ccc21
-14%	C/C(=N\NS(=O)(=O)c1ccc(C)c([N+](=O)[O-])c1)c1cccs1
3%	CCN(C(=O)CSc1nc2ccccc2c(=O)n1CCOC)C1CCS(=O)(=O)C1 (stereo not drawn)
-16%	CC(C)n1nnnc1SCC(=O)NCc1ccco1
-10%	COC(=O)c1cc(=O)n(Cc2ccc(F)cc2)c(=NCc2ccc(F)cc2)s1
12%	COc1ccc(-n2c(Cc3cccn3C)nnc2SCC(=O)NCCc2ccccc2)cc1
10%	CCc1cc(=O)oc2c(C)c3c(cc12)CN(CCc1ccccc1OC)CO3
-8%	Cc1nc2ccn(Cc3ccco3)c(=O)c2cc1C(=O)Nc1ccc(F)cc1
-2%	COc1ccccc1NC(=O)c1c(C)cc(=O)oc1C
-4%	O=C(Cn1ccccc1=S)c1ccc(Cl)c(Cl)c1
-23%	c1ccc(-c2noc(-c3ccco3)n2)nc1
-1%	CC(C)C(=O)COc1c2occc2cc2ccc(=O)oc12
-16%	CC(C)CCN1CCN(Cc2cc(F)ccc2-n2cccn2)CC1CCO (stereo not drawn)
14%	CCc1ccc2[nH]c(=O)c(CN(CCN(CC)CC)C(=O)Nc3ccccc3OC)cc2c1
-15%	O=C(OCc1c(-c2ccccc2)ncc2ccccc12)c1ccc(Cl)cc1Cl
18%	C=CCn1c(SCC(=O)Nc2sccc2C(N)=O)nc2sc(CC)cc2c1=O
0%	CN(/N=C/c1ccncc1)c1cnc2ccccc2n1
-12%	CC(C)CN(C(=O)COC(=O)c1ccc(Br)cc1)c1c(N)n(Cc2ccccc2)c(=O)[nH]c1=O
?	Oc1c(CN2CCOCC2)ccc2ccccc12
2%	Cc1ccc(C(=O)CSc2nc3cc(C(=O)NC4CCCC4)ccc3c(=O)n2CC2CCCO2)c(C)c1 (stereo not drawn)

The results go on:
VDR inhibitor	mol
?	COc1ccc(NC(=S)Nn2cnnc2)c(OC)c1
23%	Cc1ccc(NC(=O)CNC(=O)c2ccc(OC(F)F)cc2)cc1S(=O)(=O)N1CCCCCC1
-17%	Cc1cc(C)cc(OCc2cc(=O)n3cc(C)sc3n2)c1
-5%	Cc1cc(Cl)ccc1OCC(=O)N(Cc1ccco1)Cc1ccco1
?	O=C(O)/C=C/C(=O)Nc1ccc(C(=O)c2ccccc2)cc1
10%	COc1ccccc1CNC(=O)CCC1N=C2c3ccccc3N=C(SCc3ccccc3Cl)N2C1=O (stereo not drawn)
-22%	O=C(Nc1ccccc1)N1CCSc2ccccc21
0%	Cn1c2ccccc2c2cnn(CC(=O)Nc3ccccc3F)c(=O)c21
-14%	COCCN(C(=S)Nc1cccc(OC)c1)C1CCN(C(C)C)CC1
-5%	N#C/C(=C\c1ccccc1)C(=O)Nc1sc2c(c1C(N)=O)CCC2
-14%	Cc1cc(NS(=O)(=O)c2ccccc2)no1
-2%	O=C(Cn1nc(-c2ccccc2)ccc1=O)NCCCN1CCOCC1
2%	O=S(=O)(Cc1ccccc1)Nc1ccccc1Br
-22%	CCC(CC)c1nnc(NC(=O)C2CC(=O)N(C3CCCC3)C2)s1 (stereo not drawn)
-15%&8%	COc1ccc(C)cc1NC(=O)CN1C(=O)COc2ccc(S(=O)(=O)N3CCCCCC3)cc21
-2%	CCCOc1ccc(CNC(=O)C2CCN(C(=O)c3sccc3-n3cccc3)CC2)cc1

Entries listed so far with a furan ring, fused or not, in the order listed:
VDR inhibitor	mol
3%	Cc1ccc(CNC(=O)c2c(-c3ccccc3F)noc2C)o1
8%	COc1ccc(CCNC(=O)c2cc(-c3cc(Cl)cc(Cl)c3)oc2C)cc1
?	CCOC(=O)c1c(-c2ccc(C)o2)csc1NC(=O)CN1CCOCC1
19%	CC(C)NC(=O)C(=O)N/N=C/c1ccco1
-16%	CC(C)n1nnnc1SCC(=O)NCc1ccco1
-8%	Cc1nc2ccn(Cc3ccco3)c(=O)c2cc1C(=O)Nc1ccc(F)cc1
-23%	c1ccc(-c2noc(-c3ccco3)n2)nc1
-1%	CC(C)C(=O)COc1c2occc2cc2ccc(=O)oc12
-5%	Cc1cc(Cl)ccc1OCC(=O)N(Cc1ccco1)Cc1ccco1

(more compounds)
VDR inhibitor	mol
3%	CCOc1ccc(CCNC(=O)c2ccc(C)c(-n3c(C)nc4cccnc43)c2)cc1OCC
-2%	CCCCN(CCNP(=O)(OCC)OCC)CP(=O)(OCC)OCC
-6%	CCOC(=O)C(=O)N1CCC(Cc2ccccc2)CC1
4%	COC(=O)C1=C(C)NC(=O)NC1c1ccc(OC(=O)c2ccco2)cc1 (stereo not drawn)
16%	CCOc1ccccc1NC(=O)C(c1ccccc1)N1CCN(CC(=O)N2CCOCC2)CC1 (stereo not drawn)
-1%	Cc1ccc(C(=O)O)cc1-c1ccc(/C=C2/NC(=O)N(c3ccccc3)C2=O)o1
-1%	Cc1ccc(NS(=O)(=O)c2ccc(C(=O)OCC(=O)Nc3cc(C)on3)cc2)cc1
19%	O=C(NCCc1ccccc1)C1CCN(S(=O)(=O)c2ccccc2)CC1
-6%	CC(=O)c1cccc(NC(=O)CSc2nnnn2C2CCCC2)c1
-11%	COCCCn1c(=O)c2ccccc2c2ccccc2c1=O
-4%	O=C(Cc1ccc(Br)cc1)OCC(=O)N1CCOCC1
3%	CCNc1nc(SC(C(C)=O)C(C)=O)nc(N(C)C)n1
2%	c1ccc(-c2nc(NCc3cccs3)c3ccccc3n2)cc1
12%	COc1cc2c(cc1OC)C(c1ccc(F)cc1)N(c1ccc(F)cc1)C(=O)C2 (stereo not drawn)
-5%	C=C(Br)CN1CCN(CC(=C)Br)CC1
-16%	CCN(C(=O)c1cc2c(s1)-c1c(C)cccc1OC2)c1ccccc1F
0%	CCOC(=O)C1CCCN(Cc2cc(OC)c(O)c(OC)c2)C1 (stereo not drawn)
-9%	Cc1ccc(NC(=O)NCc2ccncc2)cc1Cl
-10%&-1%&-3%	COc1ccc(CCN2CCC(Nc3nc4ccccc4n3Cc3ccc(F)cc3)CC2)cc1
-20%	CCCCn1c(SCc2ccc(C(=O)OC)o2)nc2cc(S(N)(=O)=O)ccc21
-25%	COc1ccc(C(=O)NCCn2cc(SCC(=O)NCc3ccco3)c3ccccc32)cc1
1%	O=S(=O)(Cc1cc(N2CCOCC2)nc(-c2ccccn2)n1)c1ccccc1
3%	O=C(CSc1nnc(-c2ccncc2)n1-c1ccccc1)Nc1ccc(Cl)c(Cl)c1
?	FC(F)(F)c1ccccc1-c1nc(N2CCOCC2)c2ccccc2n1
-11%	CC(=O)N1CCN(c2ccc(NC(=S)NC(=O)c3ccc(C)c([N+](=O)[O-])c3)cc2)CC1
-4%	Cn1c2ccccc2c2cc(C(=O)NNC(=O)CCl)sc21
-3%	CCc1nnc(NC(=O)CCC(=O)N2CCCC(O)C2)s1 (stereo not drawn)
-10%	Cc1[nH]c(=O)[nH]c(=O)c1S(=O)(=O)Nc1ccc(Cl)c([N+](=O)[O-])c1
89µM*	CCCc1nc(SCC(=O)c2ccc(F)cc2)c2ccccc2n1
27%	CN(C)c1ccnc(Nc2ccc(F)cc2)c1C#N
-3%	CCOc1ccccc1NC(=O)COc1cccc(-n2cnnn2)c1
17%	Clc1ccc(Oc2nc3c(Cl)cccc3s2)cc1Cl

Brought forward from above: 2 entries, then new ones.
VDR inhibitor	mol
-3%	CCOc1ccccc1NC(=O)COc1cccc(-n2cnnn2)c1
17%	Clc1ccc(Oc2nc3c(Cl)cccc3s2)cc1Cl
-11%	C=C(C)c1sc(-c2ccccc2)nc1C
4%	COCCNc1ncncc1-c1c(C)noc1C
19%	CC(=O)N(CN1C(=O)c2ccc([N+](=O)[O-])cc2C1=O)c1cccc(C(=O)O)c1
15%	Cc1ccc(CNC(=O)c2cc(Sc3ccc(F)cc3F)nc3ccccc23)cc1
5%	Cc1nc2ccc(NC(=O)c3cccc(S(=O)(=O)N4CC(C)OC(C)C4)c3)cc2s1 (stereo not drawn)
11%	Cc1ccc(/C=C(/C#N)C(=O)NC(C)c2ccccc2)o1 (stereo not drawn)
3%	CC(=O)N1c2ccc(S(=O)(=O)NCCC(=O)NCc3ccc(Cl)cc3)cc2CC1C (stereo not drawn)
22%	Cc1cccc(NC(=O)NCc2cccnc2)c1C
-15%	COc1ccc(S(=O)(=O)N2CCN(C(=O)NCc3ccc(C)cc3)CC2)cc1
11%	CCCc1nnc(NC(=O)CCC(=O)N2CCN(CCn3c(C)ccc3C)CC2)s1
25µM*	Cc1ccc([N+](=O)[O-])cc1N=C1C(=O)Nc2ccccc21
3%	COc1ccc2nc(SCC(=O)Nc3ccccc3OC)[nH]c2c1
12%	CC(C)(C)S(=O)N1Cc2cc(CO)cc(-c3ccccc3)c2[C@@H]1CCO (stereo partly drawn)
-7%	COc1ccc(C2=Nc3nc(-c4ccccc4)cn3C(c3ccc(OC)cc3)C2)cc1 (stereo not drawn)
3%	O=C(O)c1cccc(NC(=O)c2cccc(S(=O)(=O)Nc3cccc([N+](=O)[O-])c3)c2)c1
21%	COc1ccc(C(c2c(O)cc(C)n(Cc3ccco3)c2=O)N2CCCCC2)cc1OC (stereo not drawn)
-4%	O=C(Nc1ccnn1C1CCN(Cc2ccccc2OC(F)F)CC1)c1cccnc1
7%	O=C(Nc1ccncc1)C1CC1c1ccccc1 (stereo not drawn)
-6%	Cc1ccc(OCC(=O)Nc2ccc(OCc3cc(=O)n4ccsc4n3)cc2)cc1C
0%	Clc1ccc(Cc2nc(-c3cccnc3)no2)cc1
-15%	CCC(C)(C)c1ccc(OCCCC[n+]2ccccc2)c(C(C)(C)CC)c1
?	Cc1ccnc(NC(=O)COc2ccc3c(c2)CCC3)c1
-9%	Cc1cc(NS(=O)(=O)c2ccc(NC(=O)CN3C(=O)NC(C)(c4ccccc4)C3=O)cc2)nc(C)n1 (stereo not drawn)
22%	O=C(CN1CCN(Cc2ccc3c(c2)OCO3)CC1)NCC(F)(F)F
-4%	CCc1nnc(NC(=O)CSc2nc3cc(OC)c(OC)cc3cc2C)s1
-15%	Cc1ccccc1/[N+]([O-])=C/c1cccs1

Only part of the results is shown; count on the stated rates, not on these rows.
